# Menin-MLL FL inh – qHTS Assay for Inhibitors Targeting the Menin-MLL Interaction in MLL Related Leukemias: Competition With Fluorescein Labeled MLL-derived Peptide. Fluorescence polarization, fluorescein-MLL peptide displacement from menin. FP activity change, % at 61.4 µM. 290,000 tested, under 10 active; inconclusive = falling polarisation curve, or a change in total fluorescence; inactive = total fluorescence flat and polarisation flat or rising; no compound was filed as active; the % refers to the polarisation; negative = inhibition;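 also: % of control where 0% means no effect; inhibitors lower the polarisation; unlabelled MLL peptide was the positive control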
# D2 agonist – Beta-Arrestin HTS for Positive Allosteric Modulators of the Human D2 Dopamine Receptor: Agonists; hit rate 0.084% among 360,000; AID 624465, 2012; activation, % (test concentration not listed); DiscoveRx PathHunter D2 beta-arrestin, luminescence, 90 min; 100% = 57 uM dopamine signal; in the data active = activation above about 40%; inconclusive = about 15% to 40%; inactive = below about 15%; also: compound concentration not given in the record; the text of the record calls up to 30% inactive
# Target sequence (P14416 whole entry, looked up): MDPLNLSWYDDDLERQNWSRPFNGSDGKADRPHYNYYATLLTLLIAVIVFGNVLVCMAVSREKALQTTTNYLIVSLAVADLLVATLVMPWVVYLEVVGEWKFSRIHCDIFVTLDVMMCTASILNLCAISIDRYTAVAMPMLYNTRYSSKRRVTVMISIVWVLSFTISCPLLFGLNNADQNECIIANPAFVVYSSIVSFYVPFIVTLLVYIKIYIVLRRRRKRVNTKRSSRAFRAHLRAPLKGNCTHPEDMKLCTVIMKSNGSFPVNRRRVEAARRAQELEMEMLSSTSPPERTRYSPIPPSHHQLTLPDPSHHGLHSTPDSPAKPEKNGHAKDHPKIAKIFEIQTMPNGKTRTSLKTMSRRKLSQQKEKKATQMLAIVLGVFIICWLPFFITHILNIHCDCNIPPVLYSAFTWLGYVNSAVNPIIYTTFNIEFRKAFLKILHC
#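 DiscoveRx PathHunter D2 beta-arrestin cells (2,100/well) attached overnight, then compound-stimulated 90 min at 37 C in HBSS/10 mM HEPES/0.1% Tween-20 buffer; beta-galactosidase complementation read by luminescence after 1 h at ambient temperature. Dopamine 57 uM final (EC100) as control.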
# Sfp PPTase inh – qHTS Assay for Inhibitors of Bacillus subtilis Sfp phosphopantetheinyl transferase (PPTase); Potency, µM, without a hit: max response, negative = inhibition, most hits filed as inhibitors; 4'-phosphopantetheinyl transferase ffp (Bacillus subtilis), Q9F4F7; AID 1490, 2009; Biochemical Sfp PPTase activity, qHTS; hit rate 3.5% among 310,000; active = well fitted inhibition curve with a large enough effect; inconclusive = small, poorly fitted or top-dose-only effect, or another doubt; inactive = no such curve, though single readings can be large or run the other way;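 also: the enzyme is Sfp with the accession as filed and its product quenches rhodamine fluorescence; potency is read from the fitted curve at half-maximal effect; 0% = enzyme reaction without inhibitor and -100% = no enzyme wells; top concentration of the series not given in the record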
#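 Buffer: 50 mM Hepes-Na pH 7.6, 10 mM MgCl2, 0.01% Nonidet P-40, 0.01% BSA. Enzyme 15 nM, pre-exposed to compound 15 min; substrates then added and fluorescence change tracked over 30 min.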
# gsp antag – qHTS for Antagonists of gsp, the Etiologic Mutation Responsible for Fibrous Dysplasia/McCune-Albright Syndrome: qHTS | Potency, µM (top dose mostly 76.9 µM), for inactives: top-dose activity change, negative = inhibition, hits mostly inhibitors | hit rate 0.4% among 340,000 | gsp-mutant cells, cAMP HTRF, 30 min; control for the full effect not named in the record | AID 624288, 2012; active = falling curve of any shape with a large fitted effect; inconclusive = falling curve, mostly with a smaller effect; inactive = flat or rising curve; cell line not stated here;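 also: intracellular cAMP measured with PDE inhibitor Ro 20-1724 present during compound exposure; potency is read from the fitted curve at half-maximal effect; % is scaled to controls: 0 for no effect and ±100 for the full control effect; nearly all actives have a fitted effect of over 65% in size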
#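 Cells in G418 medium, seeded 16-24 h, 37C; buffer exchange to DPBS + 1 mM CaCl2, 0.5 mM MgCl2, 0.05% BSA; cpds in DMSO + […] (300 uM stock), 30 min 37C; HTRF cAMP detection.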
# ClpP mod – qHTS Assay for Activators of ClpP; Potency, µM (highest dose often 57.5 µM), for the others: at the top dose activity change, negative = active; purified B. subtilis ClpP, FRET peptide cleavage, 20 min; hit rate 1.9% among 340,000; ATP-dependent Clp protease proteolytic subunit (Bacillus subtilis (strain 168)), P80244; active = well fitted falling curve with a large enough effect; inconclusive = small, poorly fitted or top-dose-only effect; inactive = no such curve, though single readings can be large or run the other way; also: potency is read from the fitted curve at half-maximal effect; the source files actives as falling curves though it sought activators and does not explain the sign; nearly all actives have a fitted effect of over 65% in size; many hits overshoot -100%
# Target sequence (P80244 whole entry, looked up): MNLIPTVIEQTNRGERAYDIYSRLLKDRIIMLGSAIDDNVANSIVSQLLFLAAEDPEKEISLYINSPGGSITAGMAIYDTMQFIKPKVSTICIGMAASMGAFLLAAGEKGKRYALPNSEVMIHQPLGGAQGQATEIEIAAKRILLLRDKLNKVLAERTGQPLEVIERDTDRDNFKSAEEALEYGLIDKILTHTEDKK
#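 ClpP 10 microg/mL final, pH 8 Tris/KCl buffer with BSA, glycerol, Tween-20; compound pinned in; FRET-FV substrate; RT 20 min; Ex320/Em430; ΔFRET vs ADEP 5.8 microM, DMSO, no enzyme.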
# PINK1 modulator – A Quantitative High throughput Screen to Identify Chemical Modulators of PINK1 Expression. hit rate 0.2% among 410,000. PINK1 immunofluorescence, high-content cytometry, 24 h. AID 624263, 2012. Potency, µM (series often up to 76.6 µM), inactives show top-dose activation (PINK1 increase), usual class: activators; active = well fitted activation curve with a large enough effect; inconclusive = small, poorly fitted or top-dose-only effect; inactive = flat fitted curve, though single readings scatter; cell line not stated here;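 also: potency is read from the fitted curve at half-maximal effect; % of control where 0% means no effect; nearly all actives have a fitted effect of over 65% in size; a mitochondrial uncoupler was the plate control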
#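 Stable cell line, 250 cells/well, 12 h attachment; compounds pinned at 5 concentrations, 24 h; CCCP control. Fixed with nuclear dye, primary antibodies 12 h at 10 degrees C, secondary plus cell stain; laser-scanning cytometer read.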
# gsp ag – qHTS for Agonist of gsp, the Etiologic Mutation Responsible for Fibrous Dysplasia/McCune-Albright Syndrome: qHTS | gsp mutant cells, cAMP HTRF, 30 min; control for the full effect not named in the record | Potency, µM (titrated, usually from 76.9 µM), for the others: at the top dose activation (cAMP increase), actives largely listed as activators | hit rate 0.13% among 340,000; active = well fitted activation curve with a large enough effect; inconclusive = small, poorly fitted or top-dose-only effect, or another doubt; inactive = no such curve, though single readings can be large or run the other way; cell line not stated here;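 also: phosphodiesterase inhibitor Ro 20-1724 added with compounds to block cAMP breakdown; potency is read from the fitted curve at half-maximal effect; nearly all actives have a fitted effect of over 60% in size; about a fifth of the inactives were tested at one dose only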
#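 Cells in DMEM/10% FBS with G418 were pretreated with compounds in DMSO plus […] (300 uM stock) for 30 min at 37C. cAMP was measured by HTRF (cAMP-d2 plus anti-cAMP antibody-K) after 30 min at room temperature.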
# * hit, by the source's call; ? = inconclusive; . = no result given; & = joins results of further samples; [ ] = another dose, or the depositor's remark.
smiles	Menin-MLL FL inh	D2 agonist	Sfp PPTase inh	gsp antag	ClpP mod	PINK1 modulator	gsp ag
CC(Oc1ccc(Br)cc1Cl)C(=O)Nc1ccncc1 (centres undefined)	-0.7	0.4	4%	1%	-0.3%	6.1%	-5%
O=c1c2ccccc2[nH]c2ccc(F)cc12	3.3	-0.1	0%	2%	.	5.9%	-20%[15.4 µM]
CC(C)CC(=O)c1c[nH]c(C(=O)NCC2CCCO2)c1 (centres undefined)	-0.6	0.1	12%	-7%	-0.8%	0.8%	16%
COc1ccc(CCN(C(=O)/C=C/C(=O)O)C2CC(=O)N(c3ccccc3)C2=O)cc1 (centres undefined)	-1.0	0.3	8%	5%	.	0.6%	12%[15.4 µM]
CCc1nnc(NC(=O)CSc2nnc(-c3ccc(NS(=O)(=O)c4ccccc4)cc3)o2)s1	2.2	-2.5	2%	-11%	-7.2%	0.6%	-44%[inhibitor]
COc1cccc(C(NC(=O)C2CCN(CCCOc3ccccc3)CC2)c2ccccn2)c1 (centres undefined)	.	-4.4	.	.	-3.1%	1.5%	.
CC(=O)c1ccc(N2CCN(c3ncc(C(F)(F)F)cc3Cl)CC2)cc1	7.3	1.8	3%	?	-16%	0.5%	-47%[inhibitor]
COc1ccc(S(=O)(=O)NCCCCNS(=O)(=O)c2ccc(OC)cc2)cc1	-0.4	1.5	-6%	-16%	-1.6%	0.2%	-4%
CCCCOc1ccc(C(=O)Nc2ccncc2)cc1	6.8	3.2	1%	-12%	-15%	-0.4%	20%
CC(OC(=O)CC1CCCCC1)C(=O)Nc1cccc(C#N)c1 (centres undefined)	.	0.3	.	2%	-1.8%	0.8%	2%[15.4 µM]
CCOc1cc(/C=N/NC(=O)C2CCCC2)ccc1O	0.0	-3.1	-6%	1%	-15%	0.5%	1%
CC1=NN(c2ccccc2)C(=O)/C1=C\c1cn(-c2ccccc2)nc1C	4.5	-3.2	10%	-1%	.	4.9%	-14%
CCc1nnc(NC(=O)[C@@H]2CCCN2S(=O)(=O)c2ccc3c(c2)OCCO3)s1	1.0	-2.5	8%	-4%	-1.1%	0.8%	-45%[inhibitor]
O=C(NCCCN1CCCC1=O)c1cc(COc2ccc(F)cc2F)on1	.	-1.2	16%	12%	0.2%	0.3%	18%
Cc1ccccc1CSCCNC(=S)Nc1ccccc1	-4.7	2.4	-5%	4%	.	2.3%	-17%[15.4 µM]
CNc1nc(-c2c(C)noc2C)nc2ccccc12	4.5	.	4%	.	.	2.0%	.
CNC(=O)C(=O)Nc1cc2c3c(c1)CCC(=O)N3CCC2	.	-1.1	14%	7%	-0.1%	-0.8%	2%
CCN(CC)CCCNc1nnc(C)c(=O)[nH]1	-0.2	-1.8	20%	2%[15.4 µM]	-0.9%	0.0%	5%
N#Cc1ccc(-c2nc3ccc(Br)cn3c2Cc2ccccc2C(F)(F)F)cc1	.	-2.8	.	.	-14%	7.6%	.
COc1ccc(C(CNC(=O)C2CCN(S(=O)(=O)c3ccc(F)cc3)CC2)N(C)C)cc1 (centres undefined)	-0.1	-3.6	10%	2%	1.5%	3.6%	-8%[15.4 µM]
CCN1CCN(S(=O)(=O)c2ccc(Cl)c(C(=O)NC(C)c3ccccc3Cl)c2)CC1 (centres undefined)	.	-2.0	.	-2%	35µM*	-0.7%	12%[15.4 µM]
CN(C)CCNC(=O)c1cc2c(s1)-c1ccc(Cl)cc1SC2	5.0	-4.2	-21%	10%	4.9%	-1.5%	?
CC(C)Oc1cccc(C(=O)C2CCCN(Cc3ccc4nonc4c3)C2)c1 (centres undefined)	3.1	-3.6	-2%	-73%	.	2.3%	4%[15.4 µM]
N#Cc1ccc(CN2CCCC3(CCN(S(=O)(=O)c4ccccc4)CC3)C2)cc1	-5.7	.	10%	.	.	-0.4%	.
Cc1cccc(NS(=O)(=O)c2ccc(C(=O)N3CCN(c4ccccc4O)CC3)cc2)c1C	.	?	6%	?	-1.2%	-1.8%	-6%

# Carrying on.
smiles	Menin-MLL FL inh	D2 agonist	Sfp PPTase inh	gsp antag	ClpP mod	PINK1 modulator	gsp ag
CCN(CC(=O)Nc1c(F)cccc1F)C(=O)CSc1nc2ccccc2o1	.	-2.3	.	2%	.	-3.8%	7%[15.4 µM]
Fc1ccc(NCc2nnc(SCc3nnc(-c4ccccc4)o3)n2CC2CCCO2)cc1 (centres undefined)	-0.8	-1.0	7%	-4%	1.8%	0.1%	-46%[inhibitor]
O=C1C2C(c3cccc(/C=C/c4ccccc4)c3)CC=CC2C(c2ccc3ccccc3c2)N1Cc1ccccc1 (centres undefined)	-0.7&6.8	-0.2	3%&20%	7%	4.3%	2.0%	.
Cn1nc(C(F)(F)F)c(-c2ccc(F)cc2)c1NC(=O)Nc1ccc(F)cc1	2.7	-2.8	6%	-11%	.	?	14%[15.4 µM]
Cc1cccc(OCC(O)CNC(=O)c2ccccc2C(=O)O)c1 (centres undefined)	.	-0.2	.	11%	1.0%	0.5%	-4%
COc1ccc(Cl)cc1NC(=O)CSc1nnc(-c2ccco2)o1	.	-0.7	2%	5%	-6.0%	-0.3%	0%[15.4 µM]
COc1ccccc1N(C)S(=O)(=O)c1ccc(Cl)c(C(=O)Nc2ccccc2N2CCOCC2)c1	.	6.1	.	-14%	-1.1%	3.4%	15%
Cc1cc(C)cc(Nc2cc(C)nc3nc(C)nn23)c1	-0.5	-1.6	-8%	-7%	2.0%	3.2%	18%
c1ccc2c(NCCN3CCOCC3)nc(-c3ccc4c(c3)OCO4)nc2c1	?	.	11%	.	.	0.0%	.
C/C(=N\NC(=O)c1n[nH]c2c1CCC2)c1cccs1	-1.1	-1.1	12%	4%	.	-0.8%	-10%[15.4 µM]
Nc1c(Cl)ncnc1N/N=C/c1ccccn1	-0.1	-0.5	-7%	-4%	-3.8%	1.1%	-7%
COCC(C)NC(=O)c1cccc([N+](=O)[O-])c1 (centres undefined)	-0.6	6.0	4%	13%	.	3.8%	?
COc1ccc(NC(=O)CC2C(=O)N(c3ccc(OC)cc3)C(=S)N2NC(=O)c2cccc(F)c2)cc1 (centres undefined)	0.8	-6.9	11%	-13%	-1.0%	6.2%	18%[15.4 µM]
COc1ccccc1-c1cc(C(=O)N/N=C\c2cn(C)nc2C)c2ccccc2n1	5.1	-4.1	3%	18%	-1.2%	3.0%	-5%
Cc1ccc(NC(=O)C2(S(=O)(=O)c3ccc(Cl)cc3)CC2)cc1	-1.9	-2.5	16%	?	.	0.6%	2%[15.4 µM]
Cc1csc2nc(COC(=O)c3ccc(Cl)c([N+](=O)[O-])c3)cc(=O)n12	.	-2.5	.	12%	.	4.0%	34%[15.4 µM]
COc1ccc(S(=O)(=O)N2CCCC(C(=O)NCC3CCCO3)C2)cc1OC (centres undefined)	-2.7	-6.3	19%	19%	0.9%	3.0%	-2%[15.4 µM]
CN1C(=O)C(O)(CC(=O)c2ccc(F)cc2)c2cc(Br)ccc21 (centres undefined)	3.0	-4.0	-7%	-8%	-1.0%	4.3%	-17%
COc1ccccc1NS(=O)(=O)c1ccc(N2CCOCC2)c(NC(=O)c2ccco2)c1	-0.3	-9.6	5%	-6%	.	3.0%	12%[15.4 µM]
O=C(CCc1nc(-c2ccccc2Cl)no1)Nc1cccnc1	-1.4	0.7	7%	15%	.	0.8%	-1%[15.4 µM]
CC(/C=C/c1ccccc1)=N\NC(N)=S	1.3	-3.0	-10%	5%	-13%	2.0%	?
O=C1NC(=O)/C(=C\c2ccc(Sc3ccc(Cl)cc3)o2)N1	2.3	-0.1	-14%	6%	-7.4%	1.3%	0%
CCOC(=O)N1CCN(C(=O)C2CCCN(S(C)(=O)=O)C2)CC1 (centres undefined)	0.0	0.1	19%	0%	-0.9%	?	0%
CCN(CC(=O)Nc1cc(Cl)ccc1C)C(=O)c1ccc2c(c1)NC(=O)C(C)S2 (centres undefined)	.	-1.1	.	5%	-1.7%	4.9%	-13%
Cc1ccccc1SCC(=O)NCCCn1ccnc1	1.6	0.0	3%	8%	.	-0.6%	21%[15.4 µM]

# (further entries)
smiles	Menin-MLL FL inh	D2 agonist	Sfp PPTase inh	gsp antag	ClpP mod	PINK1 modulator	gsp ag
O=S(=O)(CC(O)COc1ccc(Br)cc1)c1ccccc1 (centres undefined)	3.1	-3.9	-1%	19%	0.4%	0.0%	2%
COc1ccc(S(=O)(=O)N(C)CC(=O)NCc2ccccc2)cc1OC	-3.7	1.0	19%	13%	.	1.6%	1%
O=C(NCc1ccccc1)c1onc(CSc2ccc(F)cc2)c1C(=O)NCc1ccccc1	.	-1.9	.	-14%	-1.9%	-0.4%	-27%
O=C(Cn1cnc2c(nnn2Cc2ccccc2)c1=O)Nc1ccc2c(c1)OCCO2	.	5.8	-6%	?	-0.5%	3.2%	-9%
CC(OC(=O)c1ccc(OCC2CCCO2)cc1)C(=O)N(C)Cc1ccccc1 (centres undefined)	.	2.1	.	-11%	1.0%	2.2%	9%[15.4 µM]
CCN(Cc1ccncc1)Cc1ccc(Br)cc1	2.6	2.7	-33%	7%	.	2.9%	-45%[inhibitor]
CNCCCNC(=O)c1ccc(/C=N/O)nc1	-5.7	-4.2	79µM*	11%	-2.5%	-0.9%	-6%

# Bioassay records as filed in PubChem BioAssay.
